VACV Venus inh: qHTS for Stage-Specific Inhibitors of Vaccinia Orthopoxvirus: Venus Reporter Primary qHTS; Vaccinia virus Venus reporter expression, fluorescence; Potency, µM (series often up to 36.5 µM), without a hit: top-dose activity change, negative = inhibition, usual class: inhibitors; actives 0.46% (n = 330,000); active means well fitted inhibition curve with a large enough effect; inconclusive means small, poorly fitted or top-dose-only effect; inactive means no such curve, though single readings can be large or run the other way; tested in A549 cells; also: nearly all actives have a fitted effect of over 30% in size; inactives centre near -10
VACV mCherry inh: qHTS for Stage-Specific Inhibitors of Vaccinia Orthopoxvirus: mCherry Reporter Primary qHTS; Vaccinia virus mCherry reporter infection, fluorescence; about a quarter of the inactives have no number; Potency, µM (titrated, usually from 36.5 µM), inactives show at the highest dose activity change, negative = inhibition, actives largely listed as inhibitors; actives 0.63% (n = 310,000); AID 720579, 2013; active = well fitted inhibition curve with a large enough effect; inconclusive = small, poorly fitted or top-dose-only effect; inactive = no such curve, though single readings can be large or run the other way; tested in A549 cells; also: nearly all actives have a fitted effect of over 35% in size; inactives centre near -10
* = called active by the depositor; i = inactive; ? = inconclusive; / = no result given; & = joins results of further samples; [ ] = another dose, or the depositor's remark. % is scaled to controls: 0 for no effect and ±100 for the full control effect; potency is read from the fitted curve at half-maximal effect.

SMILES | VACV Venus inh | VACV mCherry inh
O=C(CCC(=O)c1ccccc1)Nc1ccccc1OC(F)F | -14% | -11%
COc1cccc(-c2cccc(NC(=O)C3CCN(Cc4cnn(C)c4)CC3)c2)c1 | -10% | i
COc1ccc(/C=C/c2nc(-c3ccccc3O)n[nH]2)cc1 | -3% | -13%
COc1ccc(CN2C(=O)C(C)=C(C)C2OC)cc1 (stereo not given) | 7% | -8%
CCn1ncc([N+](=O)[O-])c1C(=O)n1nc(C)cc1C | -6% | -14%
COc1ccccc1/C=C/C(=O)Nc1ccc(N2CCOCC2)cc1 | -2% | -12%
Cc1onc(-c2ccccc2Cl)c1C(=O)Nc1cccc(S(=O)(=O)NC2=NCCC2)c1 | -4% | i
CC(C)c1nnc(NC(=O)c2cccc(NC(=O)C(F)(F)F)c2)s1 | -8% | 0%
CCOC(=O)N1CCN(C(=S)NC)CC1 | -6% | -8%
COc1ccc(C2C3=C(N=C4SCC(=O)N42)c2ccccc2CC3)cc1 (stereo not given) | -15% | /
OC[C@@H]1CN(Cc2ccc(Cl)cc2)C[C@H](n2cnc3c(NCc4ccc(F)cc4)ncnc32)O1 | -14% | ?
CC1(C)CC2CC(C)(CN2C(=O)COC(=O)c2cccc([N+](=O)[O-])c2)C1 (stereo not given) | -6% | i
Cc1nn(C(=O)c2ccco2)c(C)c1Sc1ccc(Cl)cc1 | -6% | i
O=C(Nc1ccc(-c2nc3cccnc3s2)cc1)c1ccc(Cl)nc1 | -8% | -12%
O=C(C=Cc1ccc2c(c1)OCO2)C1CC1 | -4% | 0%
O=C1CC(N2CCN(c3ccc(C(=O)c4ccc(F)cc4)cc3)CC2)C(=O)N1 (stereo not given) | -19% | /
O=C(NNC(=O)C1CCN(Cc2ccc(Cl)c(Cl)c2)CC1)c1cccs1 | -16% | -24%
COc1ccc(C2NC(=O)c3sc(=S)n(-c4ccccc4)c3N2)cc1 (stereo not given) | -4% | /
O=C(COC(=O)c1c2c(nc3ccccc13)/C(=C/c1ccco1)CC2)NC1CCCC1 | -8% | ?
Cc1ccc(NC(=O)c2ccc(NS(=O)(=O)c3c(C)noc3C)cc2)cc1C | -11% | i
CCc1ccc(-c2nn(-c3ccc(OC)cc3)c3c2cnc2ccc(OC)cc23)cc1 | ? | ?
O=C1C=CC(=NN=C(c2ccccc2)c2ccccc2)C=C1 | -4% | -7%
Cc1ccc(NC(=O)CN(C)C2CCCCC2)cc1Cl | -9% | i
COc1cc(-c2ccc3c(=O)c4ccccc4n(C)c3c2)cc(OC)c1OC | ? | -19%
COc1cccc(-n2cnc3sc4c(c3c2=O)CCC4)c1 | -10% | -11%
O=C(O)[C@H](CO)Nc1ncnc2sc3c(c12)CCC3 | -14% | /
CC(C)CN(CC(C)C)c1nnc(NC(=O)Nc2cccc(C(F)(F)F)c2)s1 | -27% | -27%
CN(CC(=O)Nc1nc2ccc(F)cc2s1)S(=O)(=O)c1ccc(Cl)cc1 | ? | -26%
Cc1ccc(C)c(SCC(=O)NC(=O)Nc2ccc3c(c2)OCCO3)c1 | -13% | i
CN(C)S(=O)(=O)c1cccc(COC(=O)c2ccc3c(c2)OCO3)c1 | -9% | -1%
COC(=O)[C@@]12C[C@@H](CC(=O)N3CCN(C(=O)C4CC4)CC3)C(=O)N(Cc3ccco3)C1=CCC(C)(C)C2 | -25% | i
O=C(c1ccc2c(=O)n(-c3ccccc3)c(=S)[nH]c2c1)N1CCCCC1 | -20% | -9%
Cc1nn2c(NCCOCCO)c3c(nc2c1-c1ccccc1)CCC3 | -17% | -7%
COc1ccc(CNC(=O)C(CCSC)NC(=O)c2ccco2)cc1 (stereo not given) | -1% | -4%
COc1ccc(-n2nc(C(=O)N(C)c3cc(Cl)ccc3OC)c3c4ccccc4n(C)c3c2=O)cc1 | 8% | -1%
CN(C)c1ccc(C(CNS(=O)(=O)c2ccc(F)cc2F)N2CCOCC2)cc1 (stereo not given) | -5% | -6%
Cc1noc(C)c1CCC(=O)N1CCCC(N2CCN(c3ccc(F)cc3)CC2)C1 (stereo not given) | -20% | i
O=C(NCc1ccco1)C1CC(c2ccccc2C(F)(F)F)=NO1 (stereo not given) | -25% | -20%
COc1cc(NC(=O)c2ccc(Cl)cc2Cl)ccc1-c1cc2ccccc2oc1=O | -19% | -10%
N#C/C(=C\c1ccc(-c2ccccc2Cl)o1)C(=O)Nc1nc2ccccc2s1 | -5% | -9%
CCN(CC)S(=O)(=O)c1cccc(C(=O)N[C@H](C(=O)NC2=NCCS2)C(C)C)c1 | -15% | i
Cc1ccc(S(=O)(=O)Nc2nc3ccccc3nc2NCC2CCCO2)cc1 (stereo not given) | -3% | i
COc1ccc(/C(C)=N/NC(=O)CNC(=O)c2ccncc2)cc1 | 0% | -4%
Cc1ccc(C)c(CN2C(=O)c3ccccc3S(=O)(=O)c3ccc(C(=O)N(C)C4CCCCC4)cc32)c1 | -14% | -19%
O=C(NCc1ccc2c(c1)OCO2)C(=O)NC1CCCCC1 | 5% | -10%
CNS(=O)(=O)c1ccc(NC(=O)c2cc(-c3ccncc3)nc3ccc(Cl)cc23)cc1 | -9% | i
O=C(CCCCn1c(=S)[nH]c2ccsc2c1=O)NCc1ccco1 | -15% | i
COc1cc(C2NCC(c3ccc(Cl)cc3Cl)c3c2[nH]c2ccccc32)cc(OC)c1OC (stereo not given) | -20% | -25%
COc1cccc(-c2nc(SCC(=O)Nc3nc(-c4ccccc4)c(C)s3)[nH]c(=O)c2C#N)c1 | -5% | i
COc1cc(C(=O)NC(=S)NNC(=O)c2cnccn2)cc(OC)c1OC | ? | ?
COc1ccccc1N1C(=O)c2cccc3c(N(C)CCO)ccc(c23)C1=O | 74%[activator] | i
COc1ccc(NS(=O)(=O)c2ccc(O)c(NC(=O)c3cc4c(C)nn(-c5ccc(F)cc5)c4s3)c2)cc1 | ? | ?
CCCOc1cccc(C(=O)N2CCN(C(=O)C3CCCO3)CC2)c1 (stereo not given) | -17% | i
CCCC(=O)NNc1c2ccccc2nc2ccccc12 | 1% | -8%
Cc1cc(C)n(CCNC(=O)c2cc(COc3c(F)cccc3F)on2)n1 | -17% | -4%
O=C(c1cccs1)N1CCC(Cc2ccccc2)CC1 | -23% | /
CN(C)C(=O)COC(=O)c1ccccc1Sc1ccccc1C#N | -5% | -4%
O=C(/C=C/Nc1cccc(O)c1)c1ccccc1 | -9% | i
O=[N+]([O-])c1ccc(Cl)c([N+](=O)[O-])c1 | -15%&-23% | ?
Cc1nc2cccnc2nc1C | 2% | -3%

Reformatted as labelled records: entries from further up
CN(C)C(=O)COC(=O)c1ccccc1Sc1ccccc1C#N
  VACV Venus inh = -5%	VACV mCherry inh = -4%

O=C(/C=C/Nc1cccc(O)c1)c1ccccc1
  VACV Venus inh = -9%	VACV mCherry inh = i

O=[N+]([O-])c1ccc(Cl)c([N+](=O)[O-])c1
  VACV Venus inh = -15%&-23%	VACV mCherry inh = ?

Cc1nc2cccnc2nc1C
  VACV Venus inh = 2%	VACV mCherry inh = -3%

Continuation.
SMILES | VACV Venus inh | VACV mCherry inh
COc1cc(OC)c(NC(=O)C2CC(=O)N(c3ccc4c(c3)OCCO4)C2)cc1Cl (stereo not given) | -14% | 0%
COc1cccc(C2Nc3ccccc3NC3=C2C(=O)CC(C)(C)C3)c1 (stereo not given) | -7% | -27%
Cc1cc(NC(=O)CSc2ccnc(=O)[nH]2)no1 | -6% | -12%
Cc1occc1C(=O)NNC(=O)Nc1ccc([N+](=O)[O-])cc1 | -7% | -22%
O=C(O)c1cc2nc3c(c(C(F)(F)F)n2n1)CCCC3 | 3% | 12%
CCCCn1nnnc1C(CCSC)N1CCN(C/C=C/c2ccccc2)CC1 (stereo not given) | -4% | i
COc1ccc(-n2c(Cc3cccn3C)nnc2SCC(N)=O)cc1 | 3% | 1%
COc1ccc(-c2c3c(=O)n(C)c(=O)n(C)c3cn2-c2ccc(O)cc2)cc1 | -7% | 7%
C=CCn1c(N)cc(=O)nc1SCC(=O)Nc1ccc2ccccc2c1 | -5% | /
Fc1cccc(NC(=S)NCCCN2CCOCC2)c1 | -18% | /
COc1ccc(OC)c(N(CC(=O)N2CCc3ccccc3C2)S(C)(=O)=O)c1 | -8% | i
CC(C)C(=O)c1cc2c(cc1NC(=O)c1ccccc1F)OCCO2 | -14% | -9%

Seven entries from above in another layout.
Structure	VACV Venus inh	VACV mCherry inh
COc1cc(OC)c(NC(=O)C2CC(=O)N(c3ccc4c(c3)OCCO4)C2)cc1Cl (stereo not given)	-14%	0%
COc1cccc(C2Nc3ccccc3NC3=C2C(=O)CC(C)(C)C3)c1 (stereo not given)	-7%	-27%
Cc1cc(NC(=O)CSc2ccnc(=O)[nH]2)no1	-6%	-12%
Cc1occc1C(=O)NNC(=O)Nc1ccc([N+](=O)[O-])cc1	-7%	-22%
O=C(O)c1cc2nc3c(c(C(F)(F)F)n2n1)CCCC3	3%	12%
CCCCn1nnnc1C(CCSC)N1CCN(C/C=C/c2ccccc2)CC1 (stereo not given)	-4%	i
COc1ccc(-n2c(Cc3cccn3C)nnc2SCC(N)=O)cc1	3%	1%

Next compounds
SMILES | VACV Venus inh | VACV mCherry inh
CCOC(=O)N1CCN(C(=O)CN(c2ccccc2F)S(=O)(=O)c2ccc(C)cc2)CC1 | -4% | -10%
O=C(Cc1ccc(Cl)cc1)NNC(=S)NC(=O)c1cccs1 | -12% | -8%
O=C(Nc1ccccc1)c1ccc(=O)n(Cc2cccc(Cl)c2)c1 | -21% | -17%
CCOC(=O)Oc1ccc(/C=C2\N=C(C)OC2=O)cc1 | -5% | -5%
O=C(Nc1nc2ccccc2n1CCOc1ccccc1)c1ccco1 | ? | /
CC(C)c1ccc(-c2nnc(N)s2)cc1 | -20% | i
NC(=O)c1ccccc1OCc1nc2ccccc2s1 | 26% | 18%
Cc1nn(-c2ccc(Cl)cc2)c2[nH]c(=O)c(CNCc3ccc4c(c3)OCO4)cc12 | -13% | -26%
Nc1cc(Cl)ccc1C(=O)OCC(=O)NC(=O)NCc1ccccc1 | -20% | -14%
CC1CCN(C2CCN(S(=O)(=O)c3ccc(C(F)(F)F)cc3)CC2)CC1 | -8% | -7%
COC(=O)C[C@H]1C[C@H]2c3cc(NS(=O)(=O)c4ccc(OC)cc4)ccc3O[C@H]2[C@H](CO)O1 | -12% | i
Cc1ccc(S(=O)(=O)NC(=O)N2CCCC(C)(C)C2)cc1 | 14% | /
CCCSc1ccc2nc(NC(=O)OC)[nH]c2c1 | ? | ?
CSc1ncc(Cl)c(C(=O)N(Cc2ccc(N(C)C)cc2)Cc2ccco2)n1 | 8% | -13%
CC1CN(C2CCN(C(=O)c3cccc(Cl)c3)CC2)CC(C)O1 (stereo not given) | 2% | -16%
CC(=O)Nc1ccc(NC(=O)C(C)OC(=O)c2c(C)nn(-c3ccccc3)c2Cl)cc1 (stereo not given) | -11% | 2%
Cc1ccccc1S(=O)(=O)NC(=NCc1ccc(F)cc1)c1ccccc1 | -7% | i
COc1ccc(C(=O)NNC(=O)C(=O)N2CCCCC2)cc1OC | -8% | i
O=S(=O)(c1ccc(-c2cc(C(F)(F)F)on2)s1)N1CCN(c2ccccc2)CC1 | -18% | -1%
COc1cc(N=c2c([N+](=O)[O-])nn(-c3ccc4c(c3)OCCO4)n2O)cc(OC)c1 | ? | ?
COC(=O)[C@H](C)N(Cc1ccc(Cl)c(Cl)c1)S(=O)(=O)CCNC1CCCC1 | -26% | ?
COc1ccc2nc(N3CCOCC3)cc(C)c2c1 | -18% | ?
COc1ccc(NS(=O)(=O)c2ccc3[nH]c(=O)[nH]c3c2)cc1OC | -8% | i
O=C(Cn1cnc2ccccc2c1=O)NCC1COc2ccccc2O1 (stereo not given) | -12% | -12%[1.46 µM]
Cc1ccc(C(c2sc3nc(C)nn3c2O)N2CCN(c3ccccc3F)CC2)cc1 (stereo not given) | 3% | -13%
OCC1(Cc2cccc(C(F)(F)F)c2)CCN(Cc2cc(F)cc(F)c2)CC1 | ? | -24%
CCc1cc2c(=O)c(-c3ccc4c(c3)OCCO4)coc2cc1OS(C)(=O)=O | ? | ?
Cc1cccc(C)c1Nc1nnc(SCC(=O)Nc2cc(S(=O)(=O)N3CCCCC3)ccc2Cl)s1 | -25% | ?
O=C(Nc1ccc2oc(-c3cccnc3)nc2c1)c1ccc(-c2cccc(OC(F)(F)F)c2)o1 | -19% | -3%
CCc1ccc(OCc2nnc(SCc3ccc(C(=O)O)cc3)o2)cc1 | -11% | -5%
CC(C)(C)Sc1ccc2nc3c(n2c1)CCCC3 | ? | -20%
COC(=O)C1=C(C)N(Cc2ccc(C)cc2)C(=O)/C1=C\c1cc(OC)c(OC)c(OC)c1 | 0% | -5%
C=CCNCCCCOc1ccc(C)cc1[N+](=O)[O-] | -12% | -20%
COC(=O)c1c(NC(=O)/C=C/C(=O)O)sc(Cc2ccccc2)c1C | -13% | -27%
CN1/C(=C\C(=O)Nc2ccc(F)cc2)C(C)(C)c2ccccc21 | -16% | -4%
COc1ccc(NC(=O)COc2cccc3c2CCNC3=O)cc1 | -9% | -19%
Cc1cccc(NC(=O)CSc2nc(=O)n(Cc3ccco3)c3c2CCC3)c1C | -10% | -26%
CN(Nc1cccc(Cl)c1)c1cccc(Cl)c1 | -12% | -16%
Cc1ccc(NC(=O)/C(C#N)=C/c2cn(CC(=O)NCc3ccco3)c3ccccc23)cc1C | 1% | -12%
Cc1nc2nc(NC(=O)C(C)C)[nH]n2c(=O)c1Cc1ccccc1 | -9% | -12%
S=C(NC1CCCCC1)NN(c1ccccc1)c1ccccc1 | -9% | -5%
N/C(=N\OC(=O)C1CCCCC1)c1cccc(Br)c1 | -14% | -9%

Assay outcomes as filed in PubChem.
